Compound activity (PubChem)
D2 ag – Beta-Arrestin HTS for Positive Allosteric Modulators of the Human D2 Dopamine Receptor: Agonists; D(2) dopamine receptor (Homo sapiens), P14416; DiscoveRx PathHunter D2 beta-arrestin, luminescence, 90 min; 100% = 57 uM dopamine signal; activation, % (test concentration not listed); actives 0.084% (n = 360,000); AID 624465, 2012; in the data active = activation above about 40%; inconclusive = about 15% to 40%; inactive = below about 15%; further: compound concentration not given in the record; the text of the record calls up to 30% inactive
Target sequence (P14416 whole entry, looked up): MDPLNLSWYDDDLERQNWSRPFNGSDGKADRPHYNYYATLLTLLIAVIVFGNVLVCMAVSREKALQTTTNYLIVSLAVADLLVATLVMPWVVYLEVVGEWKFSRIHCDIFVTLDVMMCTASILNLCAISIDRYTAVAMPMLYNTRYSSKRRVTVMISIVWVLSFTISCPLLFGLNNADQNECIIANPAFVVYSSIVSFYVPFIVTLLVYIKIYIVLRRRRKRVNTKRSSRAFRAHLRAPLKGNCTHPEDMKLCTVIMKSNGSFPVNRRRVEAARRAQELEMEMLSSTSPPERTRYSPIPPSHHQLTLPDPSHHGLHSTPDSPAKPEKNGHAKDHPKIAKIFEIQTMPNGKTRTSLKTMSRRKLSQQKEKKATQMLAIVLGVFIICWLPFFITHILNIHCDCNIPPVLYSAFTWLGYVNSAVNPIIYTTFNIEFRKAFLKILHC
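Agonist mode: compounds alone added to overnight-plated D2 PathHunter cells for 90 min at 37 C, with 57 uM final dopamine (EC100) defining full response. Beta-arrestin recruitment detected by chemiluminescent reagent, read after 1 h at ambient temperature.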
Six1-Eya2 inh – qHTS Assay for Inhibitors of the Six1/Eya2 Interaction; AID 651725, 2012; actives 0.56% (n = 360,000); AlphaScreen GST-Six1/His-Eya2 binding, biochemical; active compounds read low; control for the full effect not named in the record; Homeobox protein SIX1 (Homo sapiens) + Protein phosphatase EYA2 (Homo sapiens), …; activity change, % (no concentration beside the values); in the data active = activity change below about -65%; inconclusive = about -30% to -65%; inactive = above about -30%; further: on the % scale 0 is the no-effect control and ±100 the full control effect
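AlphaScreen with GST-Six1 and His-Eya2 (5X mix: 250 nM and 500 nM), glutathione donor and nickel acceptor beads; buffer 50 mM Tris pH 8.0, 300 mM NaCl, 1 mM TCEP; 1 h at 37 C in the dark.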
TRPML1 blocker – qHTS for Inhibitors of the Human Mucolipin Transient Receptor Potential 1 (TRPML1); actives 0.02% (n = 390,000); TRPML1-inducible cells, Ca2+ dye fluorescence, FDSS; active compounds read low; inhibition of EC80 agonist-evoked calcium signal; activity change, negative = inhibition, % (concentration not given with the values); in the data active means activity change below about -50%; inconclusive means about -30% to -50%; inactive means above about -30%;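 further: stimulus is agonist 54-4 at its EC80 concentration; on the % scale 0 is the no-effect control and ±100 the full control effect; the text of the record puts the active cut at -80%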
Target sequence (Q9GZU1 whole entry, looked up): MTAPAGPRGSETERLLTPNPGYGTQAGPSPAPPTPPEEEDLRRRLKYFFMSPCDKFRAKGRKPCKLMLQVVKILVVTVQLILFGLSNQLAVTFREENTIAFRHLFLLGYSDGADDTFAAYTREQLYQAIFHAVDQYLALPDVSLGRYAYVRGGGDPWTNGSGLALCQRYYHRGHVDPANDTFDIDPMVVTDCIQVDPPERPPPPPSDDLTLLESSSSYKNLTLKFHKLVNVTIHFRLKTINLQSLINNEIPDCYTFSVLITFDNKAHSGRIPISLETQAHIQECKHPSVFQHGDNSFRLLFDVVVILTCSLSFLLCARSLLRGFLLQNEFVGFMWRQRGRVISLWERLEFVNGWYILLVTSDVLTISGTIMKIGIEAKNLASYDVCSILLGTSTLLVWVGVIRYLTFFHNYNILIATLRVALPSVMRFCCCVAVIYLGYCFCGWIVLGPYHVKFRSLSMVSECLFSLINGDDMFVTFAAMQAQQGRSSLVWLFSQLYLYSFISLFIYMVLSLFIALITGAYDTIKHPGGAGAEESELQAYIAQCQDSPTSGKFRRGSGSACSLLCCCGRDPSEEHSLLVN
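TRPML1-DL cells, Tet-induced overnight (~16 h, 37 °C) at 1,500 cells/well, were loaded with Ca8 no-wash dye plus quencher for 45-90 min at room temperature. Compounds were pinned during FDSS kinetic reading; agonist 54-4 at EC80 (4 uM final) then added.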
PINK1 modulator – A Quantitative High throughput Screen to Identify Chemical Modulators of PINK1 Expression; PINK1 immunofluorescence, high-content cytometry, 24 h; Potency, µM (highest dose often 76.6 µM), inactives show at the highest dose activation (PINK1 increase), most hits filed as activators; actives 0.2% (n = 410,000); active = well fitted activation curve with a large enough effect; inconclusive = small, poorly fitted or top-dose-only effect; inactive = flat fitted curve, though single readings scatter; cell line not stated here;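 further: potency means the concentration at half of the fitted maximal effect; % of control where 0% means no effect; nearly all actives have a fitted effect of over 65% in size; a mitochondrial uncoupler was the plate control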
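Stable cell line treated 24 h with compounds at 5 concentrations (CCCP controls), then fixed and immunostained for PINK1 plus nuclear and cell stains; PINK1 immunofluorescence quantified by laser-scanning microplate cytometry.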
CtBP-E1A blk – qHTS Assay for Inhibitors of the CtBP/E1A Interaction; activity change, % (no concentration beside the values); actives 0.49% (n = 340,000); AlphaScreen GST-E1A/His-CtBP binding, 1536-well; active compounds read low; control for the full effect not named in the record; CtBP / adenovirus E1A interaction (AlphaScreen); in the data active means activity change below about -65%; inconclusive means about -30% to -65%; inactive means above about -30%; further: on the % scale 0 is the no-effect control and ±100 the full control effect
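Protein mix (5X: 125 nM each GST-E1A, His-CtBP) was incubated with pinned compound 2 h at 37 deg C in dark, in 50 mM Tris pH 8.0 buffer with 300 mM NaCl. Glutathione donor and nickel acceptor beads followed; AlphaScreen signal read after 1 h.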
TRPML1 agonist – qHTS for Agonists of the Human Mucolipin Transient Receptor Potential 1 (TRPML1) | Mucolipin-1 (Homo sapiens), Q9GZU1 | TRPML1-expressing cells, Ca2+ dye fluorescence, FDSS; host cell line not named in the record; reference of the full effect not given here | activation, % (no concentration beside the values) | actives 0.12% (n = 410,000) | AID 624414, 2012; in the data active = activation above about 50%; inconclusive = about 30% to 50%; inactive = below about 30%; further: 0% is about no effect; the text of the record puts the active cut at 80%
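Kinetic FDSS Ca2+ read in Tet-induced TRPML1-DL cells (ABD Ca8 dye plus quencher, 45-90 min RT loading): baseline, then compound, then 110 s agonist window; EC80 agonist 54-4 at 4uM final added afterwards for a 110 s antagonist window.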
Active calls of the source: *; ? = inconclusive; · = no result given; & = joins results of further samples; [ ] = dose if it differs, or a comment.

Compound	TRPML1 agonist	TRPML1 blocker	D2 ag	CtBP-E1A blk	PINK1 modulator	Six1-Eya2 inh
CC(C)c1ccc(SCc2noc(C(=O)NCC3CCCO3)c2C(=O)O)cc1 (stereo unspecified)	-0.4	-10	-0.1	-6	1.4%	1
NC(=O)[C@H]1CC2(CC(c3cccc(NC(=O)COc4ccc(Cl)cc4)c3)=NO2)CN1C(=O)C(c1ccccc1)c1ccccc1 (stereo partly specified)	-0.4	3	-1.5	-7	2.3%	-10
O=C(Nc1ccc(S(=O)(=O)Nc2ncccn2)cc1)c1cnc(Cl)c(Cl)c1	0.3	-13	-0.7	-1	-1.2%	?
CC(C)n1c(=N)c(C(=O)NC2CCCCC2)cc2c(=O)n3ccccc3nc21	-0.5	-5	·	·	-1.3%	·
Cc1cc(SCC(=O)c2cccc([N+](=O)[O-])c2)nc(=O)[nH]1	-0.1	10	9.6	·	1.6%	-20
CCN(CC)S(=O)(=O)c1ccc(-c2nnc(SCC(N)=O)n2CC)cc1	0.1	5	-6.7	0	-0.4%	9
CCC1(c2ccccc2)NC(=O)N(CC(=O)NCc2ccc(OC)cc2)C1=O (stereo unspecified)	-1.4	9	-1.2	-1	1.9%	-5
O=C1NC[C@@H](c2ccccc2)OC(=O)[C@H](Cc2ccc(F)cc2)C/C=C\C[C@H]1CC(=O)N(CCO)Cc1ccccc1	-0.6	-9	3.8	4	-0.7%	6
O=C(CC(C(=O)O)c1c(F)cccc1Cl)c1ccc(Cl)cc1 (stereo unspecified)	-0.2	14	-0.2	6	0.6%	2
CCC(=O)N1c2ccc(S(=O)(=O)N3CCCCC3)cc2CC1C (stereo unspecified)	0.2	23	-2.5	-5	2.1%	-1

Following part:
Compound	TRPML1 agonist	TRPML1 blocker	D2 ag	CtBP-E1A blk	PINK1 modulator	Six1-Eya2 inh
CCOc1ccc(C(=O)NCCC(=O)NCCCC(=O)O)cc1	-0.6	14	1.0	0	-4.4%[38.3 µM]	-2
O=C(O)CCC(=O)Nc1ccc(F)cc1	0.0	0	-2.5	5	5.9%	1
CN(C)S(=O)(=O)Oc1ccccc1C(=O)Nc1ccc(F)cc1	-0.5	-11	-1.6	0	-0.4%	8
CCOc1ccccc1N1CCN(C(=O)NCc2ccc(F)cc2)CC1	-0.1	40	4.6	0	0.2%	20
CC1CC(C)(C)CC2(C1)NC(=O)N(CC(=O)N1CCN(Cc3ccc(C#N)cc3)CC1)C2=O (stereo unspecified)	1.0	18	2.7	-15	-3.6%	3
COc1ccc(CNC(=O)c2sc3nc[nH]c(=O)c3c2C)cc1	-0.5	-6	·	·	2.2%	·
Cc1ccc(S(=O)(=O)N2CCN(CC(=O)NC3CCCc4ccccc43)CC2)cc1C (stereo unspecified)	-0.8&1.4	10&10	0.7&-0.5	4&-9	-0.9%	-8&-11
CN(C)c1nc(-c2cccnc2)nc(-c2ccccc2)c1C#N	0.8	2	-3.2	6	8.9%	1
COCc1ccc(C(=O)N2CCN(CC(=O)N3CCCC3)CC2)cc1	-0.3	16	-4.3	10	2.3%	0
CN1[C@@H](COCc2ccccc2)C=CS1(=O)=O	-0.1	·	-1.5	4	0.1%	5

More results follow:
Compound	TRPML1 agonist	TRPML1 blocker	D2 ag	CtBP-E1A blk	PINK1 modulator	Six1-Eya2 inh
COc1ccc(N(C(=O)c2cccnc2)S(=O)(=O)c2ccc(OC)c(OC)c2)cc1	1.3	32	1.1	-1	0.3%	2
O=C(Nc1ccccc1)OC1CCCCc2cccnc21 (stereo unspecified)	-0.1	17	-3.9	5	-0.2%	-3
Cc1ccc(-c2nnc(Nc3ccc(C(=O)N(C)C)cc3)c3ccccc23)cc1S(=O)(=O)NCC1CCCO1 (stereo unspecified)	-0.1	-4	-2.6	-27	1.9%	-22
CCOC(=O)N1CCC(NC(=O)CSCc2nc(-c3ccccc3Cl)oc2C)CC1	-1.3	-9	0.0	0	1.5%	2
Cc1ccc(NC(=O)c2cc(=O)c3ccccc3o2)cc1S(=O)(=O)N1CCOCC1	-1.0	17	2.5	·	1.0%	?
CCOC(=O)c1ccc(NC(=O)CSC2=NN3CCCC(=O)N=C3S2)cc1	-0.6	4	4.8	1	1.2%	-1
Cn1ncc(Br)c1C(=O)Nc1ccc(Cl)cn1	-0.3	-2	0.8	-2	1.0%	9
Cc1ccc(CS(=O)Cc2ccc(C(=O)NCc3ccc(OC(C)C)cc3)o2)cc1 (stereo unspecified)	-0.5	-3	-3.8	-6	0.9%	1
O=C(Cc1cccs1)N1CCC(c2nc3c(nnn3Cc3ccc(F)cc3)c(=O)[nH]2)CC1	0.9	50	-3.9	-6	-2.6%[38.3 µM]	-5
CCCc1cc(=O)[nH]c(SCC(=O)NCCN2C(=O)CSC2=O)n1	1.5	23	-2.4	0	0.0%	9

Profiles, looked up by structure.
`O=C(Nc1ccccc1)OC1CCCCc2cccnc21` (stereo unspecified) is entered as TRPML1 agonist = -0.1; TRPML1 blocker = 17; D2 ag = -3.9; CtBP-E1A blk = 5; PINK1 modulator = -0.2%; Six1-Eya2 inh = -3
`CCCc1cc(=O)[nH]c(SCC(=O)NCCN2C(=O)CSC2=O)n1` is entered as TRPML1 agonist = 1.5; TRPML1 blocker = 23; D2 ag = -2.4; CtBP-E1A blk = 0; PINK1 modulator = 0.0%; Six1-Eya2 inh = 9

Next part.
Compound	TRPML1 agonist	TRPML1 blocker	D2 ag	CtBP-E1A blk	PINK1 modulator	Six1-Eya2 inh
CCOc1ccc2[nH]c3c(NCCOC)ncnc3c2c1	·	·	-7.2	0	7.2%	-6
COc1ccc(C(=O)NCC(c2cccnc2)N2CCc3ccccc32)cc1OC (stereo unspecified)	0.8	-1	·	·	0.0%	·
COC(=O)c1ccc(-c2noc(CN(Cc3nccn3C)C(C)C)n2)cc1	0.2	-2	0.8	·	1.6%	-1
COc1ccc(CCNC(=O)C(=O)Nc2ccc(C)cc2)cc1OC	1.1	-2	·	·	-1.3%	·
FC(F)(F)c1nnc2ccc(N3CCN(c4ccccc4)CC3)nn12	-0.3	32	-0.7	7	0.0%	0
COc1ccc(/C=N/NC(=O)c2ccc3ccccc3c2)cc1OS(=O)(=O)c1ccc(NC(C)=O)cc1	0.1	8	3.0	14	?	-9
CNC(=O)CSc1cn(CC(=O)N(C(C)C)C(C)C)c2ccccc12	-0.4	17	-3.1	6	2.0%	1
Cc1noc(C)c1CN1C(=O)NC2(CCCCCCC2)C1=O	-1.0	9	-2.5	1	-2.9%	0
COc1ccccc1CNS(=O)(=O)c1cc(C)ccc1OC	-0.4	-5	-1.1	1	-0.3%	1
O=C(NCCN1C(=O)CSC1=O)c1ccccc1	-0.5	-7	2.5	-1	-1.5%[38.3 µM]	2

The results go on.
Compound	TRPML1 agonist	TRPML1 blocker	D2 ag	CtBP-E1A blk	PINK1 modulator	Six1-Eya2 inh
Cn1nc(C(=O)Nc2ccc(S(=O)(=O)Nc3ncccn3)cc2)ccc1=O	0.4	-15	-0.9	1	-0.4%	-2
CCN(CC)CCCNC(=S)N(Cc1cccnc1)Cc1cc2cccc(C)c2[nH]c1=O	-0.3	6	1.0	-9	-0.1%	-2
C/C(CC(=O)NC1CCCC1)=N\NC(=O)Cc1cccs1	-0.4	12	-4.1	-2	6.2%[38.3 µM]	-2
Cc1cc2cc(CNC(=O)c3cccs3)ccc2n1C	0.7	-4	-2.1	·	0.1%	-24
Cc1noc(/C=C/c2ccccc2F)c1S(=O)(=O)N1CCC(C(=O)NCC(C)c2ccccc2)CC1 (stereo unspecified)	-0.2	-2	·	·	0.7%	·
CCCNc1cc(=O)n(C)c(=O)n1C	-0.4	-4	1.3	-7	3.7%	1
O=C(O)COc1ccc(-c2nnn(CC(=O)O)n2)cc1	0.3	6	-0.2	3	1.5%[38.3 µM]	4
COc1cccc(C(=O)Nc2ccccc2C(=O)OCc2cc(=O)n3nc(C)sc3n2)c1	1.7	27	·	·	2.3%	·
Cc1ccc(-n2nnnc2SCC(=O)N2CCc3ccccc3C2)c(C)c1	1.7	20	-2.9	-4	-8.1%[38.3 µM]	-2
CCCn1c(=N)c(C(=O)NCc2ccco2)cc2c(=O)n3cc(C)ccc3nc21	-0.5	-3	·	·	1.9%	·

Further records.
Compound	TRPML1 agonist	TRPML1 blocker	D2 ag	CtBP-E1A blk	PINK1 modulator	Six1-Eya2 inh
CCOc1cc(C)c(Cl)cc1S(=O)(=O)n1ccnc1	-0.4	-12	2.1	-4	-2.6%	2
Cn1cccc1/C=C1\CC(C(C)(C)C)C/C(=C\c2cccn2C)C1=O (stereo unspecified)	15	-11	-5.8	-5	?	-18
O=C(NCc1ccccc1F)C(=O)NCC(c1ccco1)S(=O)(=O)c1cccs1 (stereo unspecified)	-0.6	-12	·	·	-0.3%	·
CCNc1nc(NCC)n2c(SCC(=O)Nc3ccc(F)cc3[N+](=O)[O-])nnc2n1	0.1	-5	-3.3	0	-0.9%	-8
COCCCNC(=O)Cn1cc(/C=C(\C#N)C(=O)NC2CC2)c2ccccc21	·	·	-0.8	·	1.0%	-2
Cn1c(COc2ccccc2)nnc1SCC(=O)NCc1ccccc1	0.5	10	-0.6	10	·	2
COc1ccc([C@H]2CC(=O)C=C(c3ccc(Oc4ccccc4)cc3)C2)cc1OC	0.3	-2	-0.3	-18	-0.6%	-12
COc1ccccc1-c1cnnc(N/N=C/c2ccc(-c3cccc(Br)c3)o2)n1	0.1	21	-0.8	-2	2.8%[38.3 µM]	-2
Cc1ccc(Nc2ncc(C(=O)NCCCN3CCN(C)CC3)c3ccccc23)cc1Cl	0.4	19	-1.7	-1	0.9%	2
COc1cccc(NC(=O)C2(C)CCN2C(=O)Cc2cccc3ccccc23)c1 (stereo unspecified)	3.1	85	-4.3	-3	0.0%	-4
CC1(C)CC2CC(C)(CN2S(=O)(=O)c2cccc(C(=O)OCC(=O)NC(N)=O)c2)C1 (stereo unspecified)	0.6	1	-2.3	0	2.6%	-16
